From PubChem
VDR inh: Inhibitors of the vitamin D receptor (VDR): qHTS; Vitamin D3 receptor (Homo sapiens), P11473; VDR-SRC2-3 peptide fluorescence polarization, 2 h; Potency, µM, without a hit: max response, negative = inhibition, usual class: inhibitors; actives 0.93% (n = 400,000); AID 504847, 2011; active = well fitted inhibition curve with a large enough effect; inconclusive = small, poorly fitted or top-dose-only effect, or another doubt; inactive = no such curve, though single readings can be large or run the other way; note: series mostly up to about 120 µM
Target sequence (P11473 whole entry, looked up): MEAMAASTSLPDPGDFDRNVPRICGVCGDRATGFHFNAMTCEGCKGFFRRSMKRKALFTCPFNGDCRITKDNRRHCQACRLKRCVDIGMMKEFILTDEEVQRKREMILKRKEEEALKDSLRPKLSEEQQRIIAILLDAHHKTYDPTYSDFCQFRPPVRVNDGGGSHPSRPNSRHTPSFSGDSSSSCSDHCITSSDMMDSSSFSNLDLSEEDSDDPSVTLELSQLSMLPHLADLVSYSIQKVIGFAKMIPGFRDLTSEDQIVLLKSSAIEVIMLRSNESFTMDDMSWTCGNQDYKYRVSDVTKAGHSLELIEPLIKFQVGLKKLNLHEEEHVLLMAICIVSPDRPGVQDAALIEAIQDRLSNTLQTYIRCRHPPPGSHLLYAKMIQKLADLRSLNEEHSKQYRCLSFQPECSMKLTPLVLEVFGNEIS
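The screen uses fluorescence polarization to detect compounds that interfere with recruitment of the SRC2-3 coactivator peptide to VDR; plates are read after 2 h at room temperature.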
* = called active by the depositor; ? = inconclusive; & = joins results of further samples. % is set by controls: 0 for no effect and ±100 for the full control effect; potency is the fitted concentration of half-maximal effect.

SMILES	VDR inh
Cc1ccc(OCc2nnc(SCC(N)=O)n2N)cc1	-19.8%
Cn1c(=O)c2ccccc2n2c(=S)[nH]nc12	-2.3%
c1ccc(Nc2nc(-c3ccccn3)cs2)cc1	9.1%
CN(C)c1cc(-c2ccc(Br)cc2)oc(=O)c1Cl	8.9%
COC(=O)c1ccc(Oc2nc(Nc3ccc(C)c(C)c3)nc(N(C)C)n2)cc1	14.4%
Cc1cc(C)c(NC(=O)c2cc(S(=O)(=O)N3CCN(c4ccccc4F)CC3)ccc2F)c(C)c1	10.2%
O=C(Cn1cnc2ccccc2c1=O)Nc1ccc2c(c1)CCC2	4.2%
COc1cccc(C2c3[nH]c4ccccc4c3C[C@H]3C(=O)N(c4ccccc4C(=O)N4CCCC4C(=O)O)C(=O)N23)c1 (stereo not given in full)	-3.9%
CCc1ccc2oc(=O)cc(CN3CCN(Cc4ccccc4)CC3)c2c1	-5.3%
Cc1ccc(S(=O)(=O)N2CCN(C(=O)Cc3sc(C)nc3-c3ccc(F)cc3)CC2)c(C)c1	6.5%
Cc1ccc(NC(=O)c2cc(S(=O)(=O)N3CCOCC3)cn2C)cc1Cl	5.6%
O=C(Cc1ccccc1[N+](=O)[O-])NCCCN1CCOCC1	-6.2%
Cc1c(C#N)c(NC(=O)C(C)C)n(Cc2ccccc2)c1C	23.5%
O=C(NCc1ccc2c(c1)CCN2C(=O)c1ccc(F)cc1)c1ccco1	13.8%
c1ccc2c(c1)ncn2CCCOc1ccc2c(c1)CCC2	-13.7%
O=C1CN(C(=O)c2ccccc2F)c2ccccc2N1	-0.4%
CC(=O)Nc1ccc2c(c1)N(C(C)=O)c1ccccc1CC2	0.8%
Cc1cc(NCc2ccccc2)nc2ccccc12	-4.2%
CCOc1ccc(S(=O)(=O)N(C)c2ccc(OCC(=O)NCc3ccco3)cc2)cc1	-0.2%
Nc1nc(N)c2nc(CNc3ccc(C(=O)NC(CCC(=O)O)C(=O)O)cc3)cnc2n1 (stereo not given)	-9.7%&1.9%
COc1ccccc1N(CC(=O)N1CCCCCC1)S(=O)(=O)c1ccc(C)cc1	2.5%
NC(=O)c1cn(-c2ccccc2)nc1-c1cccnc1	-12.4%
CCc1ccccc1Nc1ncnc2c1cnn2-c1ccc(Cl)cc1	4.2%
O=[N+]([O-])c1ccccc1Nc1ccccc1	12.9%
Cc1ccc(S(=O)(=O)Nc2ccc3ccccc3n2)cc1	1.0%

Gathered by group: the entries above with an NH in an aromatic ring.
SMILES	VDR inh
Cn1c(=O)c2ccccc2n2c(=S)[nH]nc12	-2.3%
COc1cccc(C2c3[nH]c4ccccc4c3C[C@H]3C(=O)N(c4ccccc4C(=O)N4CCCC4C(=O)O)C(=O)N23)c1 (stereo not given in full)	-3.9%

(further entries)
SMILES	VDR inh
CCCCn1c(-c2cccc(Br)c2)nc2cc3[nH]c(=O)c(C(C)C)nc3cc21	-23.6%
O/N=C(\Cc1cscn1)c1ccc(O)cc1O	-5.4%
COc1ccc(CCNC(=O)CN(c2ccccc2OC)S(C)(=O)=O)cc1OC	-17.5%
O=C(CCc1ccccc1)NCC1OCCc2ccccc21 (stereo not given)	7.0%
CCn1c(=O)c2cc(C(=O)NCc3cccs3)sc2c2ccccc21	-4.4%
Cc1ccc(S(=O)(=O)NCCc2nnc3ccc(NCCCOC(C)C)nn23)cc1	-9.0%
C/C(=N/NC(=O)CNC(=O)/C=C/c1ccccc1)c1ccco1	4.6%
COCCCNc1ncnc2c1nc1n2CCCC1	-10.4%
CCOC(=O)c1ccc(CN2Cc3ccccc3C2=O)cc1	-9.1%
Cc1csc(NC(=O)C2CCCCC2C(=O)O)n1 (stereo not given)	-0.6%
COc1ccc(S(=O)(=O)N(C)c2ccc(C(=O)NCc3ccco3)cc2)cc1OC	1.9%
Cc1ccnc(NC(=S)N2CCN(c3cccc(C(F)(F)F)c3)CC2)c1	-18.5%
Cc1ccc(S(=O)(=O)N2CCC(C(=O)OCC(=O)N(C)C3CCS(=O)(=O)C3)CC2)cc1C (stereo not given)	?
CS(=O)(=O)c1ccc(C(=O)OCC(=O)NCC2CCCO2)cc1[N+](=O)[O-] (stereo not given)	-4.3%
CC(=O)Nc1ccc(NC(=O)COC(=O)c2cc(S(=O)(=O)N3CCCC3)ccc2O)cc1	1.0%
CC(=O)Nc1ccc(S(=O)(=O)NCCc2csc(-c3cccnc3)n2)cc1	3.8%
CCN1CCC(N2CCN(c3ccc(F)cc3)CC2)CC1	-13.2%
COc1ccc(NC(=S)NC2CCN(Cc3ccccc3)CC2)cc1OC	-11.5%
O=c1cc(CN2CCOCC2)nc(C2CC2)[nH]1	-4.8%
COc1ccc2c(Sc3ccccc3)c(C(=O)NCCCN3CCCCC3)[nH]c2c1	10.9%
Cc1csc(NC(=O)c2nc(-c3ccccc3)n(-c3ccccc3)n2)n1	4.9%
CCC(C)(C)n1nnnc1C(c1cc(OC)ccc1OC)N1CCC(C(N)=O)CC1 (stereo not given)	0.0%
CC(=O)NC(CC(=O)NC1CCCCC1)c1ccccc1 (stereo not given)	-7.8%
COc1ccc(C2=NN(c3nc(C(=O)O)cs3)C(O)(C(F)(F)F)C2)c(OC)c1 (stereo not given)	9.8%
CC(=O)NCCc1cc2cc(C)c(C)cc2[nH]c1=O	-1.4%
(continued)
SMILES	VDR inh
COc1cccc(NC(=O)c2cc([N+](=O)[O-])ccc2N2CCN(C)CC2)c1	7.0%
CCCn1cc(S(=O)(=O)CC(=O)Nc2ccc(OCC)cc2)c2ccccc21	17.4%
CCOC(=O)c1sc(NC(=O)CSc2ncn[nH]2)c(C#N)c1C	4.6%
CNC(=O)c1nnc(Cc2ccc(F)cc2)o1	2.6%
CCOC(=O)N1CCN(C(=O)COC(=O)CNC(=O)c2ccc(C)cc2)CC1	-15.9%
O=C(NCc1ccc(Cl)cc1)c1ccc(CNc2c(N3CCCC3)c(=O)c2=O)cc1	-12.9%
O=C(NCCN1CCOCC1)c1cccs1	8.9%
COc1cc(S(=O)(=O)NCC2CCCO2)c(OC)cc1Cl (stereo not given)	-9.1%
Cc1ccc(C)c(C(=O)CN2C3=NCCCN3c3ccccc32)c1	1.6%
O=C(CSc1nnc2ccccn12)Nc1ccccc1C(=O)O	-1.0%
CC(C(=O)Nc1ccccc1F)N1C(=O)c2ccccc2C1=O (stereo not given)	9.2%
Cc1cccc2cc(CN(Cc3nnnn3C3CCCC3)C3CCCCC3)c(=O)[nH]c12	-14.1%
COc1cccc(N2CCN(S(=O)(=O)c3ccc4[nH]c5c(c4c3)CCCC5)CC2)c1	9.0%
CCCCC(O)(CCCC)C(=O)NN(C(=O)OC)c1ccc(C)cc1	-3.8%
COc1ccc(NC(=S)N2CCc3cc(OC)c(OC)cc3C2)cc1	-24.7%
N#CCOc1ccccc1CNC[C@H]1O[C@@H](n2cnc(C(N)=O)n2)[C@H](O)[C@@H]1O	-18.5%
CCOc1ccc(N=C2C(=O)N(CN3CCOCC3)c3ccccc32)cc1	-11.3%
Cc1nnc(SCc2ccc(C(=O)Nc3cc(Cl)ccc3C)cc2)s1	-24.1%
O=C(c1ccc2c(=O)n3c(nc2c1)CCC3)N1CCN(S(=O)(=O)c2cccc(F)c2)CC1	-16.8%
COc1ccc(OC)c(/C=N/NC(=O)c2ccc3nc[nH]c3c2)c1	-8.2%
COc1ccccc1Oc1coc2c(CN(C)C)c(O)ccc2c1=O	9.1%
O=C1N[C@@H](Cc2ccccc2)COC(=O)[C@@H](Cc2ccc(F)cc2)CC/C=C/C[C@@H]1CC(=O)N(CCO)Cc1ccccc1	-12.6%
CC(C)(C)c1ccc(C(=O)NCCC(=O)NC2=NCCS2)cc1	-9.1%
COc1ccc(CC(=O)OCC(=O)c2ccc(OC)c(OC)c2)cc1	-12.1%
Cc1ccc(C)c(NC(=O)NNC(=O)c2cc3occc3[nH]2)c1	14.9%

Reprinted at random: 5 compounds from above
SMILES	VDR inh
Cc1ccc(NC(=O)c2cc(S(=O)(=O)N3CCOCC3)cn2C)cc1Cl	5.6%
CCCCC(O)(CCCC)C(=O)NN(C(=O)OC)c1ccc(C)cc1	-3.8%
COc1cccc(NC(=O)c2cc([N+](=O)[O-])ccc2N2CCN(C)CC2)c1	7.0%
Cc1cc(C)c(NC(=O)c2cc(S(=O)(=O)N3CCN(c4ccccc4F)CC3)ccc2F)c(C)c1	10.2%
O=C(NCc1ccc(Cl)cc1)c1ccc(CNc2c(N3CCCC3)c(=O)c2=O)cc1	-12.9%

The listing picks up, starting 2 compounds before the break.
SMILES	VDR inh
COc1ccc(CC(=O)OCC(=O)c2ccc(OC)c(OC)c2)cc1	-12.1%
Cc1ccc(C)c(NC(=O)NNC(=O)c2cc3occc3[nH]2)c1	14.9%
O=C(O)c1cnn(-c2nc(-c3ccc(F)cc3)cs2)c1C(F)(F)F	-2.9%
NC1=NC(c2cn[nH]c2-c2cccc(F)c2)n2c(nc3ccccc32)N1 (stereo not given)	-10.3%
O=C(O)CC1Cc2ccccc2C1C(=O)O (stereo not given)	9.1%
COc1cc(OC)cc(OC(=O)c2cccc(S(=O)(=O)N3CCN(C)CC3)c2)c1	0.4%
O=C(NC1CCSc2ccccc21)c1c(F)cccc1Cl (stereo not given)	-1.4%
CCOC(=O)c1ccccc1NS(=O)(=O)c1ccc(S(=O)(=O)N2CCCC2)cc1	-0.6%
COc1ccc([C@@H]2CC=C(C(=O)O)[C@H](c3ccc(Cl)cc3)N2S(=O)(=O)c2ccccc2C)cc1	5.8%
Cc1cc(C(=O)COC(=O)c2ccc[nH]c2=O)c(C)n1-c1ccc(Br)cc1	-8.2%
Cc1ccc(SCC(=O)OC(C)C(=O)NC2CCCCC2C)c(C)c1 (stereo not given)	-24.3%
COc1ccccc1CCNC(=O)c1cc(-c2ccncc2)nc2ccc(Br)cc12	-0.4%
CC(=O)N1CCN(C(=O)CCCNC(=O)c2ccc(Cl)cc2)CC1	4.0%
N#Cc1nc(-c2ccco2)oc1N1CCCC1	10.7%
O=C(COC(=O)/C=C/c1ccc(Cl)cc1)Nc1ccccc1-c1ccccc1	-3.3%
Cc1ccc(NS(=O)(=O)c2ccc3c(c2)CC(=O)N3)cc1F	-4.7%
O=C1CCCC(O)=C1N=Nc1ccc(C(=O)O)cc1	-0.2%
COc1cc2c(cc1OC)C(c1ccc(Br)cc1)NCC2 (stereo not given)	-2.3%
Cc1ccc(CN(CC(=O)NC2CCCCC2)C(=O)c2csnn2)cc1	-12.0%
OC[C@@H](O)[C@@H](O)[C@H](O)[C@H](O)CO	-3.6%&6.0%
CCCC(C)NC(=O)c1ccc2[nH]c3c(c2c1)CC(C)CC3 (stereo not given)	-12.8%
CCc1ccc(S(=O)(=O)c2n[nH]n3c2nc(=O)c2ccccc23)cc1	9.5%
O=C(NN1CCCCC1)c1cnn2c(C(F)F)cc(-c3ccccc3)nc12	-1.8%
COc1ccc(NC(=O)CCN2CC(C)OC(C)C2)c(OC)c1 (stereo not given)	2.0%
C=CCn1c(SCC(=O)N2CCOCC2)nc2sc(C)c(C)c2c1=O	1.4%
CCOC(=O)c1[nH]c(C)c(C(=O)OC)c1C	10.3%
CSc1ccccc1NC(=S)Nc1cccc(C(F)(F)F)c1	16.1%
Other compounds follow:
SMILES	VDR inh
CC(=O)N(/N=C1\Sc2ccccc2C1=O)c1ccccc1C	-7.7%
Cc1cc(=O)[nH]c(SCC(=O)Nc2ccc(Cl)cn2)n1	19.9%
CCCCN(C)CCNC(=O)c1cc2cc3ccc(OC)cc3nc2o1	-2.6%
O=C(O)C[C@H]1c2cc(C(F)(F)F)ccc2S(=O)(=O)N1C1CCN(Cc2ccccc2)CC1	13.2%
CN(C)CCNC(=O)c1cc2sc3ccccc3c2s1	-1.4%
Cc1cccc(NC(=O)CN2C(=O)NC3(CCCC3)C2=O)n1	-1.2%
Cc1ccn2c(/C=N/OCc3cccc(F)c3)c(-c3ccc(Cl)cc3)nc2c1	4.1%
Oc1c(Br)cc(C2N=C(c3ccccc3Cl)NO2)cc1Br (stereo not given)	4.0%
COc1ccccc1NC(=O)COC(=O)CNC(=O)c1ccc(OC)c(OC)c1	3.3%
O=C(Nc1ccccc1N1CCCC1)c1cc(S(=O)(=O)N2CCOCC2)ccc1Cl	-6.0%
CSc1ccccc1C(=O)Nc1nccs1	3.4%
CC(C)c1nnc(NC(=O)C2CCN(c3cnccn3)CC2)s1	-0.1%
CCN1CCCC1CNC(=O)Cn1cccc1C(=O)c1ccccc1C (stereo not given)	16.8%
COc1cc(C2Nn3c(nnc3-c3ccccc3OC)S2)ccc1O (stereo not given)	1.5%
COc1ccccc1C(=O)NCCC(=O)N(C)Cc1cccnc1	-3.7%
COc1cc2c(CCNC(C)=O)c[nH]c2cc1O	14.8%&-19.2%
Cc1cccc(C)c1OCC(=O)Nc1ccc(S(=O)(=O)Nc2ccccn2)cc1	-6.8%
Nc1ccc(-c2nc3cc(N)ccc3o2)cc1	-9.4%
CCOC(=O)c1c(-c2ccccc2)c2cc(OC)ccc2n1CCCN(C)C	-11.0%
CCOc1ccc(C(=O)N2CCC3(CC2)NCCc2[nH]cnc23)cc1	-18.0%
O=C(Nc1ccccc1C(=O)OCc1cc(=O)n2c3c(sc2n1)CCCC3)c1ccccc1	4.3%
CC(=O)Nc1ccc(S(=O)(=O)NCC2CCCO2)cc1 (stereo not given)	2.7%
C/C(=N\NC(=O)c1cc(Br)ccc1O)c1cccs1	-11.9%
N#Cc1ccc(CCc2ccccc2)[nH]c1=O	8.7%
O=C(c1ccc(NS(=O)(=O)c2cccs2)cc1)N1CCCCC1	6.7%
The list continues.
SMILES	VDR inh
O=C(COC(=O)c1nsc(Cl)c1Cl)NC1CCCCC1	-12.6%
Cc1ccc(-n2c(SCc3ccc([N+](=O)[O-])cc3)nc3ccccc3c2=O)cc1	-2.4%
O=C(O[C@@H]1Cc2c(O)cc(O)cc2OC1c1ccc(O)c(O)c1)c1cc(O)c(O)c(O)c1 (stereo not given in full)	?
CC(C)n1nc(C(=O)Nc2cccc(S(=O)(=O)NCc3ccco3)c2)c2ccccc2c1=O	-3.3%
Nc1nc(=S)c2ncn([C@@H]3O[C@H](CO)[C@@H](O)[C@H]3O)c2[nH]1	-22.4%
Oc1ccc2ccccc2c1-c1sc(Nc2ccccc2)n[n+]1-c1ccc(F)cc1	-8.3%

A portion of the library; rates above refer to the full screens.
